eIF4H inh: inhibitors of RNA binding by human eIF4H; Q15056; eIF4H fluorescence polarization binding assay; inhibition, % at 35 µM; 0.94% of 290,000 active; AID 2012;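 active = 50% or more with normal probe brightness, or confirmed in later tests; about a fifth of its hits are not listed in these tables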;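 also: calls also rest on retests at 20 µM and on dose response follow-up; 0% = protein and probe with vehicle and 100% = probe without protein; strong numbers were not always called active; many hits fall short of the cut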
HIV Env fusion: inhibitors of HIV Env-mediated cell fusion | 1.1% of 360,000 active | inhibition, % at 12.3 µM | HeLa-JRFL Env/CEM21 cell fusion, luciferase;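 active = mean replicate inhibition score of at least 50 and every replicate individually at or above 50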;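 also: 0% = plate neutral controls and 100% = maraviroc near 300 nM; one replicate is shown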
PABP FP inh: PABP-poly(A) binding inhibition. PABP-poly(A) RNA binding, fluorescence polarization. inhibition, % at 35 µM. 1% of 290,000 active;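 active = 50% or more with normal probe brightness, or confirmed in later tests; about a fifth of its hits are not listed in these tables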;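 also: calls also rest on retests at 20 µM and on dose response follow-up; controls were probe without protein and protein plus probe with vehicle; some compounds called inactive have numbers as strong as hits; many hits fall short of the cut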
Target sequence (P11940 whole entry, looked up): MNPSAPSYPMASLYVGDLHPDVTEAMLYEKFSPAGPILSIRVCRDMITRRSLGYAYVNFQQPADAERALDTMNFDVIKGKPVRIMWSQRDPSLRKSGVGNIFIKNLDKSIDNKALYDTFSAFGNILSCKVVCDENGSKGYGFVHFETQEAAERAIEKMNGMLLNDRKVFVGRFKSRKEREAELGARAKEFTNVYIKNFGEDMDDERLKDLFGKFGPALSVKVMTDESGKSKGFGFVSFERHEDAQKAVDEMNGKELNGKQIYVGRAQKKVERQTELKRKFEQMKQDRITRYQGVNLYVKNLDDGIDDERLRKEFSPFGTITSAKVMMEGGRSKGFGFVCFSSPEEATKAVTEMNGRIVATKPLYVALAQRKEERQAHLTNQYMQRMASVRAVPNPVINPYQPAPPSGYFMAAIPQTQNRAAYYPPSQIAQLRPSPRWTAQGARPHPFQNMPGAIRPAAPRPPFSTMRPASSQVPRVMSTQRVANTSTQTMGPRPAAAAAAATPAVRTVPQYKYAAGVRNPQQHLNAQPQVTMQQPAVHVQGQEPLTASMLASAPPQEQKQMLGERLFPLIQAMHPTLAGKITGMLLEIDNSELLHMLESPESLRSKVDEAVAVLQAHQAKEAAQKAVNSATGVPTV
MT1-MMP act inh: blocks activation of human MT1-MMP. 0.061% of 360,000 active. HT1080 RFP-PRO-GFP cells, GFP/RFP ratio fluorescence, overnight; percent of plate control window, DMSO zero. GFP/RFP ratio change, % at 20 µM. AID 651647. P50281;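 active = GFP/RFP ratio change of at least 30% with cell ATP level not reduced by more than half and red fluorescence within 50% of control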; also: strong numbers were not always called active
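Test system: HT1080 RFP-PRO-GFP cells; Benchmarks: DMSO and RFP-L50D-GFP cell wells; Timing: cells overnight before dosing, compound overnight, 37 °C, 5% CO2; Compound: one 20 µM compound dose with 1% DMSO; Read-out: GFP/RFP fluorescence ratio.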
Rce1 inh: yeast Ras-converting enzyme inhibition. Q03530. yeast membranes, quenched prenylated peptide cleavage fluorescence. calls only. 0.27% of 290,000 active. AID 2563;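 active = fall in fluorescence gain of 50% or more versus controls, with final raw signal at or below 3038400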;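 also: plate controls were neutral control wells for no effect and wells lacking membranes for full effect; tested at 10 µM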
UUG fidelity: yeast start codon fidelity modulation. activity score, % at 18.7 µM. S. cerevisiae UUG-firefly luciferase reporter, luminescence/redox ratio. 0.13% of 350,000 active;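 active = replicate mean at a twofold rise or more, about +100% in these data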;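 also: firefly luciferase made from a UUG start codon reports start codon fidelity; reporter light over untreated wells divided by growth signal over untreated wells; some hits fall short of that in this replicate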
CSC inhib: cancer stem cell inhibition; cancer stem cell-like cells viability, luminescence; inhibition, % at 7.5 µM; 1.1% of 300,000 active; AID 2717;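 active = mean at 75% or more and at least half the replicates too; tested in HMLE shEcad cells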;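 also: 0% = median of negative and 100% = median of positive control wells; the first replicate is given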
MT1-MMP act inh RFP: recorded beside MT1-MMP act inh, whose call it bears; RFP signal change, %; measured here: RFP expression control read;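 0 = vehicle wells; hits needed this value within 50% of zero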
* hit, by the source's call; i = inactive; / = not tested or not shown; & = joins results of further samples. An unsorted share of the library, and some 2.9% of all compounds hit somewhere here.

Compound,eIF4H inh,HIV Env fusion,PABP FP inh,MT1-MMP act inh,MT1-MMP act inh RFP,Rce1 inh,UUG fidelity,CSC inhib
Cc1ccc(NC(=O)COc2cccc(C)c2C)cc1S(=O)(=O)N1CCCCCC1,/,46,/,-8,-12,i,/,-11
CC(=O)NC1=NN(C(C)=O)C(C)(CCS(=O)(=O)c2ccc(Cl)c(Cl)c2)S1 (stereo unspecified),-3,-10,-2,0,1,i,-13,/
N#Cc1c(SCC(=O)Nc2cccc(C(F)(F)F)c2)sc2c(O)cc(=O)[nH]c12,16,15,21,1,2,i,-13,-10
O=C(NCc1ccc(Cl)s1)C1CCC(=O)N(CCc2ccccn2)C1 (stereo unspecified),1,12,-4,-3,0,i,-11,4
O=C(COC(=O)c1cc(Cl)ccc1Cl)NC1CCCC1,2,-10,12,3,6,i,-9,1
Cc1ccc(NC(=O)C2CCN(S(=O)(=O)c3ccc(F)cc3)CC2)cc1,-3,-21,0,3,2,i,-10,-7
S=c1[nH]nc(-c2ccccc2)n1/N=C/c1ccc(Cl)cc1,4,-79,-3,3,2,i,-18,5
CCc1cc(=O)oc2cc(C)cc(OCC(=O)N3CCC[C@@H]3C(=O)O)c12,-4,/,-2,1,1,i,-4,-13
O=C(NCC(c1cccs1)N1CCOCC1)c1ccccc1NS(=O)(=O)c1ccc(Br)cc1 (stereo unspecified),-6,15,-12,-10,-9,i,-2,-2
Cc1cccc(Cn2cnc3c(nnn3Cc3ccccc3F)c2=O)c1,-6,13,-6,5,5,i,-13,-21
O=C(Nc1ccccc1C(=O)N1CCCCC1)C1CCCCC1,10,/,1,0,0,i,/,2
Cn1nc(-c2ccccc2)c(/C=N/O)c1Cl,5,17,-3,5,4,i,/,9
O=C(c1ccc(Br)cc1)C1CCc2occc2C1=O (stereo unspecified),22,14,18,5,7,i,4,-4
CCOC(=O)N1CCC(N2CCN(S(=O)(=O)CC)CC2)CC1,11,/,-6,3,0,i,-21,3
COc1cc2c(cc1[N+](=O)[O-])n(C(C)C)c(=O)n2C(C)C,12,5,-4,-5,4,i,/,-10
COc1ccc2c(c1)C(c1cccs1)=NNC(c1cccnc1)=N2,-1,-5,-6,0,0,i,/,3
O=S(=O)(Nc1ncn[nH]1)c1ccc(Cl)cc1,-4,-13,-7,1,1,i,-7,-4
O=C(Cc1ccc(NS(=O)(=O)c2ccc(F)cc2)cc1)NCc1ccccc1,-7,/,-8,0,-8,i,-10,0
COc1ccccc1CNC(=O)c1cc(C2CC2)nc2c1cnn2C(C)C,/,/,/,-3,-1,/,-22,-6
O=C(NC1=NCCS1)c1ccc(Cl)c(S(=O)(=O)N2CCCCC2)c1,2,14,-6,2,3,i,-8,/
Cc1cc(Cl)nc(-c2ccccc2)n1,0,18,4,1,2,i,/,-15
CN(C)C(CNC(=O)c1cc(Br)c(Br)s1)c1ccco1 (stereo unspecified),/,9,/,1,0,/,-2,/
C#Cc1cccc(C(=O)N2CCCC(CCC(=O)NCc3ccccc3F)C2)c1 (stereo unspecified),3,7,5,3,-3,i,-3,5
CC1=C(C(=O)Nc2ccc(C)cn2)C(c2cnn(C)c2)C2=C(CCCC2=O)N1 (stereo unspecified),0,11,-1,-2,3,i,-7,4
CC(C)C(C)N(Cc1ccc(C(=O)O)cc1)C(=O)c1ccc2ccccc2n1 (stereo unspecified),/,-3,/,-3,2,i,-6,-8
CCOP(=O)(OCC)C(Nc1ccc(OC)cc1)c1ccco1 (stereo unspecified),-11,-4,-13,3,3,i,-5,-13
CCC(SC1=Nc2ccccc2C2=NC(CC(C)C)C(=O)N12)C(=O)Nc1ccc2c(c1)OCO2 (stereo unspecified),0,-91,3,0,-5,i,9,11
O=C(NC(=S)Nc1nc2c(s1)CCCC2)c1ccccc1,2,-112,-6,-3,3,i,-10,-6
CCCC(=O)Nc1sc(Cc2ccccc2)c(C)c1C(N)=O,3,-2,4,1,-1,i,-7,0
COc1ccc(Cl)cc1NC(=O)CN(C)C(=O)CN1C(=O)NC2(CCCC2)C1=O,/,4,/,-1,4,i,3,2
CCOC(=O)c1ccc(S(=O)(=O)N2CCN(C(=O)c3cc4ccccc4o3)CC2)cc1,/,5,/,6,-13,/,-10,/
CC(=O)Nc1ccc(S(=O)(=O)NCCCCNS(=O)(=O)c2ccc(NC(C)=O)cc2)cc1,-7,-149,-6,-1,1,i,-4,-14
COc1ccc(NC(=O)Nc2cccc3ccccc23)cc1OC,-1,/,3,2,-6,i,-3,-4
CCOC(=O)N/N=C/c1ccccc1OCc1ccc(Cl)cc1,-6,-4,-12,-3,-7,i,/,/
COc1ccc(N(CC(=O)NCc2ccc(F)cc2)C(=O)CCC(=O)Nc2nccs2)cc1,-10,12,8,2,3,i,7,21
CCn1c(SCC(=O)Nc2cc(C)on2)nnc1-c1ccc(S(=O)(=O)N2CCCC2)cc1,-6,-3,-5,3,-3,/,-11,-18
O=C(CN(C(=O)CCC(=O)Nc1nccs1)c1ccc(F)cc1)NCc1ccc(F)cc1,1,-1,1,0,0,i,-5,/
Cc1ccc(S(=O)(=O)/C=C/c2ccccc2)cc1,0,25,1,-2,1,i,-17,-5
O=c1[nH]c2ccc(S(=O)(=O)N3CCCCC3)cc2o1,7,/,-12,0,2,i,-9,-4
COC(=O)c1sc(-c2ccccc2)cc1NC(=O)C1CC1,5,-2,-5,-3,1,i,/,15
COCCOC(=O)C1=C(C)NC(=O)NC1c1c(OC)ncnc1OC (stereo unspecified),-5,-6,-3,9,-1,i,5,-12
CC(=O)Nc1ccc(OCC(O)Cn2ccnc2C)cc1 (stereo unspecified),-12,11,-3,-1,4,i,/,-16
COc1cccc(-c2csc(N3CCN(C(=S)Nc4cccc(Cl)c4)CC3)n2)c1,-1,/,-13,-3,-8,i,-7,3
O=C1/C(=C/c2ccncc2)CCC/C1=C\c1ccncc1,-3,89*,-1,-13,-36,i,-14,/
CCc1ccc(NC(=O)CSc2nc3cc(C(=O)OC)ccc3c(=O)n2CC2CCCO2)cc1 (stereo unspecified),8,6,-1,3,-1,i,-5,16
Cc1nc(SC(C)C(=O)Nc2cccc(C(F)(F)F)c2)c2c(C)c(C(=O)O)sc2n1 (stereo unspecified),-6,2,10,-6,-1,i,/,12
CCOC(=O)[C@H]1[C@H]2COc3ccc(Br)cc3[C@H]2N2C(=O)CN(Cc3ccc(C)cc3)C(=O)[C@@]12C,/,-68,/,-24,-8,/,-11,/
Cc1c(C(=O)N2CCOCC2)sc(NC(=O)c2ccc3c(c2)OCO3)c1C#N,1,/,12,-1,4,i,-20,/
COc1ccc(CC(=O)NCc2nnc(SCC(=O)c3ccc(OC)cc3)n2C)cc1,8,16,-14,1,-3,i,-8,-12
CCOc1ccc(NC(=O)CSc2nnc(-c3ccccn3)n2N)cc1,4,-28,-12,-4,-1,i,-8,-5
COc1ccc(N2C(=O)NC(NS(=O)(=O)c3ccccc3)(C(F)(F)F)C2=O)cc1 (stereo unspecified),0,-4,0,0,1,i,-13,8
O=C(CN1C(=O)c2ccc([N+](=O)[O-])cc2C1=O)NCc1ccc(C(=O)O)cc1,-10,1,-3,-5,-3,i,-6,-12
CN(C(=O)CN1CCC(NC(=O)c2ccccc2Br)CC1)C1CCCCC1,0,1,7,0,3,i,-17,-9
O=C(O)c1ccccc1Oc1ccc(Oc2ccccc2)cc1,-4,-15,2,2,3,i,10,2
CCn1c(SCc2cccnc2)nnc1-c1c[nH]c2ccccc12,0,0,1,0,-4,i,1,-7
Cc1ccc(NC(=O)C2(C)CCN2C(=O)Cc2ccc(C(C)C)cc2)cc1 (stereo unspecified),/,42,/,-4,-19,/,15,/
COc1ccc(OC(=O)COc2cccc(C)c2)cc1,-20,14,-7,-2,3,i,-24,2
CC1(C)NC(=O)N(CCCCOc2ccc(Br)cc2Cl)C1=O,4,-100,-5,-3,-3,i,-4,-10
Cc1[nH]c2ccc(-c3n[nH]c(=S)n3Cc3ccccc3)cc2c1C,8,-5,18,-10,-2,i,-12,14
COC(=O)c1ccccc1NC(=O)NCc1ccco1,-3,-8,-6,2,1,i,-7,-1

Next part.
Compound,eIF4H inh,HIV Env fusion,PABP FP inh,MT1-MMP act inh,MT1-MMP act inh RFP,Rce1 inh,UUG fidelity,CSC inhib
CC1(C)Cc2c(sc(NC(=O)C(=O)N3CCCC3)c2C#N)CO1,-10,-3,2,3,5,i,-9,-6
COc1ccc2[nH]c(C(=O)N/N=C/c3cc(OC)c(OC)c(OC)c3)cc2c1,4,-89,1,16,1,i,5,12
O=C(CSc1nnc(SCc2ccccc2)s1)N/N=C/C=C/c1ccccc1[N+](=O)[O-],-4,6,-8,0,2,i,/,1
N/C(=N\OS(=O)(=O)c1ccc2ccccc2c1)c1ccccn1,6,8,6,2,2,/,/,/
Oc1ccc(Br)cc1/C=N/N1CCN(Cc2cccc3ccccc23)CC1,3,-4,-1,1,-2,i,/,15
COc1cc2nc3n(c(=O)c2cc1OC)-c1cc2ccccc2cc1C(=O)NC3Cc1ccccc1 (stereo unspecified),/,18,/,-2,-8,/,-15,/
CC1C(=O)N(Cc2ccc([N+](=O)[O-])cc2)c2ccccc2N1C(=O)C1CC1 (stereo unspecified),-5,15,3,/,/,i,/,-5
C[C@@H]1CN([C@H](C)CO)C(=O)CCCn2nncc2CO[C@@H]1CN(C)C(=O)Cc1ccccc1,/,-10,/,2,3,/,-12&42,/

Complete entries, looked up by structure. Order of values: eIF4H inh, HIV Env fusion, PABP FP inh, MT1-MMP act inh, MT1-MMP act inh RFP, Rce1 inh, UUG fidelity, CSC inhib
`S=c1[nH]nc(-c2ccccc2)n1/N=C/c1ccc(Cl)cc1` is listed as 4, -79, -3, 3, 2, i, -18, 5
`CC(C)C(C)N(Cc1ccc(C(=O)O)cc1)C(=O)c1ccc2ccccc2n1` (stereo unspecified) is listed as /, -3, /, -3, 2, i, -6, -8
`COc1ccc(NC(=O)Nc2cccc3ccccc23)cc1OC` is listed as -1, /, 3, 2, -6, i, -3, -4
`COc1cc2nc3n(c(=O)c2cc1OC)-c1cc2ccccc2cc1C(=O)NC3Cc1ccccc1` (stereo unspecified) is listed as /, 18, /, -2, -8, /, -15, /
